miR-21 FLuc = qHTS Assay for Modulators of miRNAs and/orActivators of miR-21 | Potency, µM (titrated, usually from 38.3 µM), inactives show top-dose reporter change, positive = more light | 340,000 tested, under 10 active | AID 2288, 2010 | HeLa miR-21 FLuc reporter, luciferase, 48 h; active = well fitted rising curve with a large enough effect; inconclusive = small, poorly fitted or top-dose-only effect; inactive = no such curve, though single readings can be large or run the other way;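 further: % of control where 0% means no effect; miR-21 action dims this reporter so a rising signal means less miR-21 action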
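Compounds were titrated across several concentrations (up to approximately 40 uM) and incubated 48 hours with HeLa miR-21-FLuc reporter cells (miR-21 target sequence downstream of FLuc, endogenous miR-21). Readout was firefly luciferase luminescence after lytic detection reagent.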
GLA inh pH 4.5 = qHTS Assay for Inhibitors of Human alpha-Galactosidase at pH 4.5; AID 1467, 2008; 230,000 tested, under 10 active; purified enzyme, 4-MU-alpha-Gal fluorescence, pH 4.5; activity change, negative = inhibition, % at 105 µM; Alpha-galactosidase A (Homo sapiens), P06280; inconclusive = small, poorly fitted or top-dose-only inhibition, or a rising curve; inactive = flat fitted curve, though single readings scatter; no compound was filed as active;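 further: 0% = full activity with enzyme and -100% = basal without enzyme; dose as in the result columns while the protocol names 77 µM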
Rango release inh = qHTS Assay for Inhibitors of RanGTP induced Rango (Ran-regulated importin-beta cargo) - Importin beta complex dissociation; Biochemical FRET Rango-importin beta, RanGTP-induced dissociation; Potency, µM (series often up to 46.1 µM), for the others: top-dose activity change, negative = inhibition; 0.071% of 340,000 active; AID 540253, 2011; active means falling FRET ratio curve, often poorly fitted, with flat reads before Ran was added; inconclusive means other falling curves, or compound fluorescence or quenching; inactive means flat or rising ratio curve;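 further: potency means the concentration at half of the fitted maximal effect; % of control where 0% means no effect; nearly all actives have a fitted effect of over 45% in size; -100% = wells without RanGTP and RCC1; the record marks most hits as doubtful in a second field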
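Rango/importin beta premix (0.1/0.25 uM final), PBS + 1 mM DTT + 0.02% Tween-20 + 0.1% BSA; cpd 5 min RT; FRET pre-read; + RanGTP-RCC1 (0.6 uM Ran, 2 mM GTP, 0.2 uM RCC1); 45 min RT; FRET post-read, ex 430, em 486/530 nm.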
Rango complex inh = qHTS Assay for Inhibitors of Rango (Ran-regulated importin-beta cargo) - Importin beta complex formation. Potency, µM (top dose mostly 92.2 µM), for inactives: at the top dose inhibition of complex formation. 0.031% of 340,000 active. AID 540263, 2011. Rango CFP/YFP FRET sensor + importin beta, 45 min; active = rising FRET ratio curve, often small or poorly fitted; inconclusive = mostly compound fluorescence or quenching in the first reads; inactive = flat curves in all reads;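 further: potency means the concentration at half of the fitted maximal effect; 0% = DMSO wells and 100% = buffer wells lacking importin beta; nearly all actives have a fitted effect of over 15% in size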
Target sequence (Q14974 whole entry, looked up): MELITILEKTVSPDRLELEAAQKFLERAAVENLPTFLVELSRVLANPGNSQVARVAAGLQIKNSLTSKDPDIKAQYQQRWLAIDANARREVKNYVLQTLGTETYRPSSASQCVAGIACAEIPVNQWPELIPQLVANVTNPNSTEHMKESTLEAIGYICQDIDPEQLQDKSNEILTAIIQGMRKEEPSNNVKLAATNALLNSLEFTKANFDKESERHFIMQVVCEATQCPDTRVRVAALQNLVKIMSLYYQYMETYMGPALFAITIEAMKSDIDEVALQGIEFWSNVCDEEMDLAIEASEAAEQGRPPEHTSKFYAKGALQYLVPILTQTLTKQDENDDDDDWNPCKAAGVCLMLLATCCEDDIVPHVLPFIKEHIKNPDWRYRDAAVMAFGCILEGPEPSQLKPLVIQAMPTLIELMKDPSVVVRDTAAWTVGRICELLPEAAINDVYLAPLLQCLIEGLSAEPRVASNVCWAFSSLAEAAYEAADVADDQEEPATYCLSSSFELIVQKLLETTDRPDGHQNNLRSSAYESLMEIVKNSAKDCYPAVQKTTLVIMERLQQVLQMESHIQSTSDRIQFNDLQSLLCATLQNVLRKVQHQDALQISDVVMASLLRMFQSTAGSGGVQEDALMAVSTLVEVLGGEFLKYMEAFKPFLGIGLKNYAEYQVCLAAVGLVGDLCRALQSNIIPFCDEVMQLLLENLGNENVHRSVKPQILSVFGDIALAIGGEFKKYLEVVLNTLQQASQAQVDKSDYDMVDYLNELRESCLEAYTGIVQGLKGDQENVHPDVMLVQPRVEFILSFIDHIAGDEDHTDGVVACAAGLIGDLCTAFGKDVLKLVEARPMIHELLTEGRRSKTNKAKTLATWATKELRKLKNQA
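FRET biosensor Rango (snurportin 1 IBB between N-terminal EYFP and C-terminal Cerulean), 50 nM in PBS/1 mM DTT/0.02% Tween-20/0.1% BSA, preincubated 5 min RT with compound; 0.125 microM importin beta added, 45 min RT, CFP/YFP FRET ratio read.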
Active calls of the source: *; ? = inconclusive; · = no result given; & = joins results of further samples. Some of the compounds tested. The share of hits here may be higher or lower than overall.

Start of the listing, in advance, six compounds:
miR-21 FLuc	GLA inh pH 4.5	Rango release inh	Rango complex inh	SMILES
0.9%	·	3.5%	-0.5%	Cc1ccc(OCc2nnc(SC(C)C(=O)O)n2-c2ccccc2)cc1 (stereo not given)
·	·	4.9%	1.4%	Cc1ccc(N2CC(NS(=O)(=O)c3cc(F)ccc3F)CC2=O)cc1C (stereo not given)
-2.5%	·	9.1%	-0.1%	COc1ccc(-c2nnc(NC(=O)c3ccc4c(c3)OCCO4)o2)cc1
·	·	0.7%	0.7%	CCCCn1c(N)c(N(CCOC)C(=O)c2ccc(C)c(S(=O)(=O)N3CCOCC3)c2)c(=O)[nH]c1=O
-0.5%	3.8	5.5%	1.9%	CCOc1cccc(OCCOCCn2cnc3ccccc3c2=O)c1
·	·	-16.1%	3.5%	O=C(Cc1ccc(Cl)cc1)c1ccccc1

This part in full, previewed entries included:
miR-21 FLuc	GLA inh pH 4.5	Rango release inh	Rango complex inh	SMILES
0.9%	·	3.5%	-0.5%	Cc1ccc(OCc2nnc(SC(C)C(=O)O)n2-c2ccccc2)cc1 (stereo not given)
·	·	4.9%	1.4%	Cc1ccc(N2CC(NS(=O)(=O)c3cc(F)ccc3F)CC2=O)cc1C (stereo not given)
-2.5%	·	9.1%	-0.1%	COc1ccc(-c2nnc(NC(=O)c3ccc4c(c3)OCCO4)o2)cc1
·	·	0.7%	0.7%	CCCCn1c(N)c(N(CCOC)C(=O)c2ccc(C)c(S(=O)(=O)N3CCOCC3)c2)c(=O)[nH]c1=O
-0.5%	3.8	5.5%	1.9%	CCOc1cccc(OCCOCCn2cnc3ccccc3c2=O)c1
·	·	-16.1%	3.5%	O=C(Cc1ccc(Cl)cc1)c1ccccc1
28.9%	·	0.6%	7.8%	CCCCCCCCCCOC(=O)Cn1c(COc2ccccc2OC)[n+](C)c2ccccc21
0.8%	0.2	-0.8%	?	CSCCC(NC(N)=O)C(=O)Nc1cccc(S(=O)(=O)N2CCOCC2)c1 (stereo not given)
0.3%	-1.2	2.3%	-2.1%	Cn1c(=O)[nH]c(=O)c2[nH]c(CN3CCN(Cc4ccccc4)CC3)nc21
-2.4%	·	1.7%	1.3%	CC1(c2cccc(Br)c2)NC(=O)N(CC(=O)Nc2ccc(S(N)(=O)=O)cc2)C1=O (stereo not given)
-8.1%	-6.7	-7.0%	1.7%	CC(=O)NC(=S)Nc1ccccc1C(=O)Nc1ccccc1
-16.9%	4.8	-24.8%	5.4%	Cn1cnnc1Sc1cc(N2CCN(S(=O)(=O)c3ccc4ccccc4c3)CC2)ccc1[N+](=O)[O-]
-5.8%	·	36.9%	?	CCOc1ccccc1NC(=O)c1nnn(CC(=O)Nc2ccc3c(c2)OCO3)c1N
-6.9%	-2.2	11.0%	0.0%	Cc1occc1-c1nnc(SCC(=O)N2CCOCC2)n1CC(C)C
-4.4%	-3.4	1.1%	0.3%	O=C(COc1ccccc1Cl)N1CCN(c2ccc(F)cc2)CC1
-5.0%	2.7	5.1%	-3.0%	CC(=O)COC(=O)C1CC(=O)N(c2ccc(C)c(C)c2)C1 (stereo not given)
2.7%	-2.9	-10.5%	2.7%	CCC(C)NC(=O)c1ccccc1NC(=O)CN1C(=O)c2ccccc2S1(=O)=O (stereo not given)
5.4%	·	1.1%	5.5%	O=C(O)c1ccc(Cl)c(S(=O)(=O)Nc2ccc(S(=O)(=O)Nc3cccc(Cl)c3)cc2)c1
-4.5%	-23.9	1.4%	1.4%	COc1ccc(CN2CC(C(=O)NCCN3CCOCC3)CC2=O)cc1 (stereo not given)
3.3%	-1.5	0.6%	0.0%	O=C(O)CSC(C(=O)Nc1ccc(C(F)(F)F)cc1)c1ccccc1 (stereo not given)
-14.0%	-9.1	16.4%	-0.3%	O=S(=O)(c1cccs1)N1CCN(Cc2nc3ccccc3s2)CC1
-34.3%	·	-2.8%	0.3%	CN(C(=O)c1cc(COc2c(F)cccc2F)on1)C1CCOC1 (stereo not given)
·	·	0.1%	-0.8%	COCc1cc(=O)c2ccccc2o1
-0.8%	·	1.5%	4.7%	CN(C)S(=O)(=O)c1ccc(NC(=O)CN2CCN(c3ccccn3)CC2)cc1
-6.2%	-2.0	21.3%	-1.1%	CC1(C)CC(=O)C(N=Nc2c(Cl)cc(Cl)cc2Cl)=C(O)C1
·	·	-4.5%	-1.9%	N#Cc1cc(Oc2ccc(Cl)cc2)c(N2CCOCC2)cc1C#N
·	·	-11.7%	2.9%	CCCCn1c(N)c(N(CCOC)C(=O)COc2ccc(OCC)cc2)c(=O)[nH]c1=O
-3.1%	0.6	-16.4%	-0.2%	Cc1occc1C(=O)NC(C)C12CC3CC(CC(C3)C1)C2 (stereo not given)
-7.8%	·	-29.2%	?	CCOc1ccc(N(CC(=O)NCCSCc2ccccc2Cl)S(C)(=O)=O)cc1
-14.6%	-16.5	-0.1%	-1.0%	CC(C)C[C@@H](CSc1ccc(Br)cc1)N1CCN(CCc2ccccc2)CCC1=O
-12.0%	·	23.1%	-3.3%	CCOc1ccc(/C(O)=C2/C(=O)C(=O)N(c3ccccn3)C2c2ccc(F)cc2)c(C)c1 (stereo not given)
-0.6%	6.4	-0.4%	-2.1%	COc1ccc(N2CCN(C(=O)CSc3nnc4c(C)cc5ccccc5n34)CC2)cc1
-12.8%	-5.6	0.8%	-2.9%	O=C(NC1CCCCC1)c1cc(F)cc2c1OCOC2
25.0%	·	1.4%	-1.4%	COc1ccc(C(=O)N2CCN(Cc3ccc4c(c3)OCO4)CC2)cc1OC
12.2%	·	5.2%	0.2%	O=C(C1CCCN(Cc2ccc([N+](=O)[O-])cc2)C1)N1CCCCC1 (stereo not given)
1.2%	-16.3	-2.5%	-1.2%	CN1CCN(c2nc(C#N)cc(-c3ccccc3)n2)CC1
-6.1%	·	-6.4%	1.4%	Cc1cccc(NC(=O)Nc2ccc(OCc3ccccc3)cc2)n1
·	·	-4.1%	-0.1%	CC(C)(C)OC(=O)N1O[C@H]2CC1[C@@H]1[C@@H]2N=NN1CCc1ccncc1
-1.6%	6.7	-4.9%	-1.1%	COc1ccc(C(C)=O)cc1CN1C(=O)NC2(CCCCC2C)C1=O (stereo not given)
·	·	-5.2%	1.6%	Cc1ccsc1CN(C)CC(=O)NCC(=O)Nc1ccc(F)cc1
·	·	-6.3%	2.9%	C#CC1(O)CCC2C3CCC4=C(CCC(=O)C4)C3CCC21C (stereo not given)
3.2%	·	2.6%	-0.4%	CC(=O)Nc1nc2ccc(S(=O)(=O)N3CCCC3)cc2s1
-6.7%	0.2	0.0%	-0.7%	Cc1ccc(N2CC(C(=O)NCCC(C)C)CC2=O)cc1 (stereo not given)
-72.4%	-1.3	-0.8%	-1.6%	O=C(NCCO)c1ccc2c3n(nc2c1)-c1ccc(Cl)cc1CO3
2.4%	-8.0	-2.1%	-0.7%	CCOC(=O)c1c(C)c(C(=O)Nc2ccc3c(c2)OCCO3)c(C)n1CC
-0.6%	·	13.9%	-2.9%	CC1CCN(CCCn2c(SCC(=O)NC3CCCC3)nc3ccccc3c2=O)CC1
·	·	8.1%	-4.7%	CN(CC(=O)Nc1cccc(F)c1)C(=O)c1cccc(-n2cccc2)c1
0.2%	-6.3	-0.2%	-1.1%	O=C(NCc1n[nH]c(=S)n1Cc1ccccc1)c1ccccc1
1.1%	·	-5.2%	-4.6%	COc1cccc(Nc2nc(C)cc(C)c2C(N)=O)c1
0.5%	-3.4	5.7%	0.5%	CC(C)c1ccc(Nc2ncccc2C(=O)O)cc1
-64.2%	-0.1	9.6%	?	CC(C)[C@@H](CO)NC(=O)c1ccc2c3n(nc2c1)-c1ccc(Cl)cc1CO3
-14.1%	6.0	20.6%	-2.6%	CCCn1c(=O)c(C(=O)N/N=C/c2ccc(F)cc2)c(O)c2ccccc21
-4.5%	·	1.1%	-3.1%	CC(C)(C)C1CCC(C(=O)NCCc2ccc(S(N)(=O)=O)cc2)CC1 (stereo not given)
-2.2%	-3.1	0.5%	3.3%	CCc1nc(SCC(=O)Nc2ccnc3ccccc23)n[nH]1
-3.4%	·	10.4%	1.9%	CCN1C(=O)c2ccccc2Sc2ccc(C(=O)O)cc21
0.3%	4.5	-21.2%	1.7%	Cc1ccccc1NC(=S)NCC(c1cccnc1)N(C)C (stereo not given)
·	·	-5.5%	-0.7%	CCCCOC(=O)C1=C(C)NC(=O)NC1c1ccc2c(c1)OCO2 (stereo not given)
-0.5%	-3.4	3.7%	-0.8%	CC(C)(C)c1nc(C(C)(C)C)c(Br)c(=O)[nH]1
-2.1%	7.5	-0.3%	-2.5%	CCCc1[nH]nc2c1C(c1ccccc1OCC)C(C#N)=C(N)O2 (stereo not given)
-9.1%	-17.7	-5.3%	-2.9%	Cc1cc(C)nc(NS(=O)(=O)c2ccc(N/C=C3\CCCC3=O)cc2)n1

Remaining list, next part:
miR-21 FLuc	GLA inh pH 4.5	Rango release inh	Rango complex inh	SMILES
0.3%	-6.4	?	-3.3%	CCOC(=O)c1nn(-c2ccc(Cl)cc2)c2nc(CC)c(C#N)c(=O)n12
·	·	-12.8%	-1.7%	CCCOc1ccc(C(=O)CCC(=O)OCC(=O)Nc2cccc(S(N)(=O)=O)c2)cc1
0.1%	·	6.8%	0.3%	O=C(NCCc1ccccc1)c1c(O)c2ccccc2[nH]c1=O
·	·	1.1%	-2.2%	O=C(CN1CCN(S(=O)(=O)c2cc(Br)ccc2Br)CC1)NCc1ccccc1Cl
-15.4%	8.6	-10.6%	3.0%	O=S(=O)(CCOc1ccccc1)N1CCOCC1
-0.2%	·	?	?	COc1ccccc1CNC(=O)COC(=O)c1nccnc1N
-11.9%	·	0.1%	1.0%	S=c1[nH]nc(COc2ccccc2)n1/N=C/c1cccc(Br)c1
-5.2%	·	-11.6%	-3.5%	COc1cccc(OC)c1C(=O)Nc1cccc(C(=O)Nc2cccc(C(=O)O)c2)c1
·	·	-15.6%	3.8%	CCOc1ccc(CCNC(=O)c2ccc(Cl)c(S(=O)(=O)N3CCOCC3)c2)cc1OCC
-13.5%	0.0	16.2%	6.4%	Cc1ccccc1N1CCN(C(=O)c2ccccc2NC(=O)c2ccccc2C(=O)O)CC1
0.5%	·	0.0%	0.3%	CCC(C(=O)NCC1CCCO1)N(Cc1ccc(F)cc1)C(=O)CNS(=O)(=O)c1ccccc1 (stereo not given)
-5.0%	-10.2	-17.1%	-3.1%	O=C(OCC(=O)N1CCCC1)c1cncc(Br)c1
-9.7%	-1.6	-5.8%	-2.1%	Cc1cc(C)c(C#N)c(SCS(=O)Cc2ccc(Cl)cc2)n1 (stereo not given)
·	·	-6.4%	-2.0%	CC(C)(Oc1ccc(Cl)cc1)C(=O)Nc1c2c(nn1C(C)(C)C)CS(=O)(=O)C2
-3.4%&17.3%	6.9	-4.7%	-0.1%	COc1ccc(C(=O)Nc2ccc3oc(-c4cccnc4)nc3c2)cc1OC
-2.2%	-26.0	-16.1%	?	CCOc1ccc(/C=C2\SC(=S)N(NC(=O)c3ccncc3)C2=O)cc1OC
-16.7%	·	-13.8%	1.7%	O=C(CSc1nnc(-c2ccccc2)o1)N1CCCC1
-0.8%	·	-25.6%	?	O=C(NC1CCCCC1)C(c1ccco1)N(C(=O)c1csnn1)c1ccc(Cl)cc1 (stereo not given)
-13.7%	3.5	6.2%	-3.4%	Cc1cc(C)n2nc(SCC(=O)N(C(C)C)C(C)C)nc2n1
·	·	-0.2%	?	COC(=O)C1=C(C(=O)OC)[C@@H]2N(C)c3ccc(OC)cc3[C@@]23C[C@@H](C(=O)OC)N(C(=O)NCCBr)C3=N1
?	8.9	-4.6%	0.8%	CCOc1ccc(-n2c(-c3ccccc3)c[n+]3c2CCCCC3)cc1
